WNV NS2B-NS3 inh: blocks West Nile virus NS2B-NS3 protease activity. z-score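 (tested at a level between 10 and 100 µM)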. WNV NS2B-NS3 protease, fluorogenic substrate Ex360/Em465; hits give low values. 65,000 compounds, 0.18% hits. AID 577;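 active means z-score at -3 or under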;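 further: score is relative to mean and spread of the compound wells of a plate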
Target sequence (P06935 1371-1501 limits assumed): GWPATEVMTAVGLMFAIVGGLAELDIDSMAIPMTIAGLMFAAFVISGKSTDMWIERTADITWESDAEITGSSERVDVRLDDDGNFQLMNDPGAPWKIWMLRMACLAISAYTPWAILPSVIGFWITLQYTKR
Target sequence (P06935 1502-1679 limits assumed): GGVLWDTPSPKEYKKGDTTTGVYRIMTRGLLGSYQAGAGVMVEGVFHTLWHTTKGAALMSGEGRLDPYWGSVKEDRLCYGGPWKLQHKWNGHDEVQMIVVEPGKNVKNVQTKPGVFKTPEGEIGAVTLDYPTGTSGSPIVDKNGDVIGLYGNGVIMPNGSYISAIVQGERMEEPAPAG
MT1-MMP reporter: inhibitors of MT1-MMP promoter transcription, cell-based, luciferase reporter, luminescence (AID 618); MT1-MMP promoter luciferase reporter cells, luminescence; 87,000 compounds, 0.62% hits; calls from a first round at 10 µM; hits with a dose series show EC50 in µM;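 active means over half of the reporter light lost at 10 µM or EC50 under 50 µM; inactive means the rest and hits that failed the dose series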;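 further: actives suppress MT1-MMP promoter-driven transcription so potencies describe inhibitors; HT1080 fibrosarcoma cells; overnight exposure; toxic or luciferase-blocking compounds were not removed from the actives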
Hsc70: small molecules displacing fluorescent ligand from Hsc70 – biochemical, fluorescence polarization, primary screen (AID 568). 83,000 tested, under 10 active. displacement, % at 20 µM, or IC50 in µM where a hit was titrated. Hsc70 fluorescence polarization, probe displacement; higher % means a stronger effect; strong numbers were not always called active;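 active means displacement above 50% without optical interference and an IC50 on retest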;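 further: ATPase domain with a fluorescein-tagged ATP probe; 0% = vehicle and 100% = excess ADP; read after one hour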
* = called active by the depositor.

`CCOC(=O)CC1=C(C(=O)OCC)C2(C(=O)N1CC(=O)OC)C(C#N)=C(N)Oc1ccccc12` (configuration not stated) gave MT1-MMP reporter inactive and Hsc70 1.6%.
For Cc1ccc(-n2c(O)c(C=NC3CCCC3)c(=O)[nH]c2=O)c(C)c1 the results were WNV NS2B-NS3 inh -1.4, MT1-MMP reporter inactive and Hsc70 -2.2%.
O=C(C1CCN(S(=O)(=O)N2CCOCC2)CC1)N1CCC2(CC1)OCCO2 was read as WNV NS2B-NS3 inh 1.8, MT1-MMP reporter inactive and Hsc70 -3.9%.
For CCCCn1c(O)c(C(CC)=NCCc2ccccc2)c(=O)[nH]c1=O the results were WNV NS2B-NS3 inh -0.65, MT1-MMP reporter inactive and Hsc70 -2.9%.
For O=[P+](Cc1ccccc1)Cc1ccccc1 the results were MT1-MMP reporter inactive and Hsc70 2.5%.
Cn1c(=O)n(CC(=O)N2CCC3(CC2)OCCO3)c(=O)c2ccccc21 was read as WNV NS2B-NS3 inh 0.82, MT1-MMP reporter inactive and Hsc70 5.7%.
For CCOC(=O)[C@]1(C#N)[C@@H]2C=CC(C(C)=O)=CN2[C@@H](C(N)=O)[C@@H]1c1ccsc1 the results were WNV NS2B-NS3 inh -0.86, MT1-MMP reporter inactive and Hsc70 23%.
For Cc1ccc2c(c1)CC1(CN2C)C(=O)NC(=O)N(C(C)C)C1=O (configuration not stated) the results were WNV NS2B-NS3 inh -1.4, MT1-MMP reporter inactive and Hsc70 0.2%.
COc1ccccc1-n1c(O)c(C=NCCCn2ccnc2)c(=O)[nH]c1=O was read as WNV NS2B-NS3 inh 0.19, MT1-MMP reporter inactive and Hsc70 2.4%.
Screening COc1cccc(N2C(=O)CC(=O)NC2=O)c1 returned WNV NS2B-NS3 inh -0.58, MT1-MMP reporter inactive and Hsc70 -4.3%.
COc1cccc(-n2c(O)c(C=NCCN3CCOCC3)c(=O)[nH]c2=O)c1 was read as WNV NS2B-NS3 inh 0.31, MT1-MMP reporter inactive and Hsc70 -0.5%.
`C[n+]1ccc(-c2ccncc2)cc1` gave WNV NS2B-NS3 inh -0.08, MT1-MMP reporter inactive and Hsc70 4.4%.
`O=C1CSC2N1CCNC21CCCCC1` (configuration not stated) gave WNV NS2B-NS3 inh 0.45, MT1-MMP reporter inactive and Hsc70 -4.2%.
Cn1cc(C(=O)N2CCC3(CC2)OCCO3)c2c3ccccc3n(C)c2c1=O was read as WNV NS2B-NS3 inh -0.15, MT1-MMP reporter inactive and Hsc70 -2.4%.
N[C@@H](Cc1c[nH]c2ccccc12)c1nnc(SCc2c(F)cccc2Cl)o1 was read as WNV NS2B-NS3 inh -0.98, MT1-MMP reporter inactive and Hsc70 -13%.
`N[C@@H](Cc1cc(Br)c(O)c(Br)c1)C(=O)O` gave MT1-MMP reporter inactive and Hsc70 5.8%.
Screening O=c1c2ccccc2nc(CSc2ncnc3nc[nH]c23)n1-c1ccccc1Cl returned MT1-MMP reporter inactive and Hsc70 -8.6%.
COc1ccccc1N1CCN(C(CNC(=O)Oc2ccccc2)c2cccnc2)CC1 (configuration not stated) was read as WNV NS2B-NS3 inh 0.84, MT1-MMP reporter inactive and Hsc70 -3.8%.
For COCCCNC(=O)c1c(NC(=O)c2ccccc2Cl)n(Cc2ccccc2)c2nc3ccccc3nc12 the results were MT1-MMP reporter inactive and Hsc70 -14%.
Cc1ccnc(-n2c(C)nc3ccccc3c2=O)c1 was read as WNV NS2B-NS3 inh 0.48, MT1-MMP reporter inactive and Hsc70 -0.7%.
`C=C1CC[C@@]2(O)[C@H]3Cc4ccc(O)c5c4[C@@]2(CCN3CC2CC2)[C@H]1O5` gave WNV NS2B-NS3 inh 0.6, MT1-MMP reporter inactive and Hsc70 -3.8%.
For CC1=C(C(=O)OC(C)C)[C@]2(C(=O)N(CC(N)=O)c3ccccc32)C(C#N)=C(N)O1 the results were WNV NS2B-NS3 inh -0.14, MT1-MMP reporter inactive and Hsc70 0.6%.
Screening O=c1[nH]c(=O)n(CCc2ccc(F)cc2)c(O)c1C=NCCCn1ccnc1 returned WNV NS2B-NS3 inh -0.12, MT1-MMP reporter inactive and Hsc70 -1.8%.
`Cc1cc(S(=O)(=O)NC(C)C)ccc1OCC(=O)N1CCN(Cc2ccc3c(c2)OCO3)CC1` gave WNV NS2B-NS3 inh 0.62, MT1-MMP reporter inactive and Hsc70 1.8%.
For CCCC12CN3CN(C1)CC(CCC)(C3)C2O (configuration not stated) the results were WNV NS2B-NS3 inh -1.3, MT1-MMP reporter inactive and Hsc70 0.1%.
O=C1NC(=O)N(Cc2ccccc2Cl)C(=O)/C1=C/N1CCOCC1 was read as WNV NS2B-NS3 inh 0.92, MT1-MMP reporter inactive and Hsc70 -24%.
CCOC(=O)C1CCN(/C=C2/C(=O)NC(=O)N(Cc3ccco3)C2=O)CC1 was read as WNV NS2B-NS3 inh 2, MT1-MMP reporter inactive and Hsc70 2.8%.
For Cc1c(N=Cc2c(O)n(CCc3ccccc3)c(=O)[nH]c2=O)c(=O)n(-c2ccccc2)n1C the results were WNV NS2B-NS3 inh 0.34, MT1-MMP reporter inactive and Hsc70 -17%.
For Cn1c(C(=O)N2CCC3(CC2)OCCO3)cc2c(=O)n(C)c3ccccc3c21 the results were WNV NS2B-NS3 inh -0.05, MT1-MMP reporter inactive and Hsc70 -1.6%.
`Cc1ccc(CN2C(=O)NC(=O)C3(Cc4c(nc5ccccn5c4=O)N4CCCCCC43)C2=O)cc1` (configuration not stated) gave WNV NS2B-NS3 inh 0.23, MT1-MMP reporter inactive and Hsc70 -1.6%.
O=C(COC(=O)Cc1ccccc1)NC12CC3CC(CC(C3)C1)C2 was read as MT1-MMP reporter inactive and Hsc70 -4.0%.
CCCS(=O)(=O)N1CCCC(C(=O)N2CCC3(CC2)OCCO3)C1 (configuration not stated) was read as WNV NS2B-NS3 inh -0.51, MT1-MMP reporter inactive and Hsc70 -3.4%.
C=CCN1C(=O)C2(C(C(=O)OCC)=C(N)Oc3c2c(=O)oc2ccccc32)c2ccccc21 (configuration not stated) was read as WNV NS2B-NS3 inh 0.2, MT1-MMP reporter inactive and Hsc70 -2.6%.
For CC(C)=CCC12CN3CCN(CC(C3)C1=O)C2 the results were WNV NS2B-NS3 inh 0.7, MT1-MMP reporter inactive and Hsc70 3.9%.
Screening CCC(=NC1CC1)c1c(O)n(C2CCCCC2)c(=O)[nH]c1=O returned WNV NS2B-NS3 inh -1.5, MT1-MMP reporter inactive and Hsc70 1.5%.
C=Cn1ccnc1P(=S)(c1ccc(N(C)C)cc1)c1nccn1C=C was read as WNV NS2B-NS3 inh -0.56, MT1-MMP reporter inactive and Hsc70 4.0%.
`c1ccc(C2N3CCCN23)cc1` (configuration not stated) gave MT1-MMP reporter inactive and Hsc70 2.3%.
For Cn1c(O)c(C=NCCCN2CCCC2=O)c(=O)n(C)c1=O the results were WNV NS2B-NS3 inh -0.97, MT1-MMP reporter inactive and Hsc70 0.6%.
For CC1(C)CC(=O)C=C(NCCN2CCN(C(=O)Cc3ccc(Cl)cc3)CC2)C1 the results were WNV NS2B-NS3 inh -0.85, MT1-MMP reporter inactive and Hsc70 2.4%.
Screening CCN(CC)CCCN=Cc1c(O)n(-c2cccc(C)c2C)c(=O)[nH]c1=O returned WNV NS2B-NS3 inh 1.2, MT1-MMP reporter inactive and Hsc70 -1.3%.

Part of the list above in order of number of heavy atoms, ascending:
Screening CCC(=NC1CC1)c1c(O)n(C2CCCCC2)c(=O)[nH]c1=O returned WNV NS2B-NS3 inh -1.5, MT1-MMP reporter inactive and Hsc70 1.5%.
For Cn1c(C(=O)N2CCC3(CC2)OCCO3)cc2c(=O)n(C)c3ccccc3c21 the results were WNV NS2B-NS3 inh -0.05, MT1-MMP reporter inactive and Hsc70 -1.6%.
`Cc1cc(S(=O)(=O)NC(C)C)ccc1OCC(=O)N1CCN(Cc2ccc3c(c2)OCO3)CC1` gave WNV NS2B-NS3 inh 0.62, MT1-MMP reporter inactive and Hsc70 1.8%.
`Cc1ccc(CN2C(=O)NC(=O)C3(Cc4c(nc5ccccn5c4=O)N4CCCCCC43)C2=O)cc1` (configuration not stated) gave WNV NS2B-NS3 inh 0.23, MT1-MMP reporter inactive and Hsc70 -1.6%.

3 entries drawn at random from those above:
Cn1cc(C(=O)N2CCC3(CC2)OCCO3)c2c3ccccc3n(C)c2c1=O was read as WNV NS2B-NS3 inh -0.15, MT1-MMP reporter inactive and Hsc70 -2.4%.
`c1ccc(C2N3CCCN23)cc1` (configuration not stated) gave MT1-MMP reporter inactive and Hsc70 2.3%.
For CCCCn1c(O)c(C(CC)=NCCc2ccccc2)c(=O)[nH]c1=O the results were WNV NS2B-NS3 inh -0.65, MT1-MMP reporter inactive and Hsc70 -2.9%.

Next section:
For Cc1nc2cc(-c3ccccc3)nn2c(C)c1CCC(=O)N1CCC2(CC1)OCCO2 the results were WNV NS2B-NS3 inh 1.6, MT1-MMP reporter inactive and Hsc70 2.2%.
Screening CCC(=NCc1cccnc1)c1c(O)n(C2CCCCC2)c(=O)[nH]c1=O returned WNV NS2B-NS3 inh -0.42, MT1-MMP reporter inactive and Hsc70 -2.8%.
Cc1ccc(N2C(=O)NC(=O)C3(Cc4ccccc4N4CCCC43)C2=O)cc1 (configuration not stated) was read as WNV NS2B-NS3 inh -1.5, MT1-MMP reporter inactive and Hsc70 2.7%.
Nc1c(C(=O)NCCN2CCOCC2)c2nc3ccccc3nc2n1Cc1ccco1 was read as WNV NS2B-NS3 inh 1.3, MT1-MMP reporter inactive and Hsc70 -15%.
Screening Cc1ccc(C2SCC(=O)Nc3c2c(=O)[nH]n3C2CCOC(C)(C)C2)cc1 (configuration not stated) returned WNV NS2B-NS3 inh 0.03, MT1-MMP reporter inactive and Hsc70 1.0%.
Screening CC(=O)N(C1=NCCCS1)c1ccc(F)cc1 returned WNV NS2B-NS3 inh 0.07, MT1-MMP reporter inactive and Hsc70 -1.0%.
CNCCc1c[nH]c2ccccc12 was read as WNV NS2B-NS3 inh 0.92, MT1-MMP reporter inactive and Hsc70 1.0%.
For O=C(Nc1ccc2c(c1)OCO2)c1cn(Cc2ccc(F)cc2)nn1 the results were WNV NS2B-NS3 inh 2.1, MT1-MMP reporter inactive and Hsc70 -4.7%.
Screening CCOC(=O)c1c(N)n(CCN2CCOCC2)c2nc3ccccc3nc12 returned MT1-MMP reporter inactive and Hsc70 2.5%.
For Cc1c(/C=C2/CC3C4CC=C5CC(O)CCC5(C)C4CCC3(C)C2=O)cnn1C (configuration not stated) the results were MT1-MMP reporter inactive and Hsc70 4.2%.
`CCc1cccc2c(C#N)cn(CC(=O)N3CCOCC3)c12` gave WNV NS2B-NS3 inh -2.5, MT1-MMP reporter inactive and Hsc70 -7.6%.
For CC1=NN(c2ccccc2)C(=O)C1/C=C1\C(=O)NC(=O)N(c2cc(C)cc(C)c2)C1=O (configuration not stated) the results were MT1-MMP reporter inactive and Hsc70 -3.5%.
`CC(C)OC12Oc3ccccc3C=C1N1CCC2CC1` (configuration not stated) gave WNV NS2B-NS3 inh -0.87, MT1-MMP reporter inactive and Hsc70 1.4%.
COc1ccc(OC)c(CN2CCN(C(=O)COc3cccc(C)c3)CC2)c1 was read as WNV NS2B-NS3 inh 0.26, MT1-MMP reporter inactive and Hsc70 -11%.
`COc1cccc(-c2nc(CS(=O)CC(=O)N3CCC4(CC3)OCCO4)c(C)o2)c1` (configuration not stated) gave WNV NS2B-NS3 inh 0.26, MT1-MMP reporter inactive and Hsc70 -3.7%.
Screening CCCC(=O)Nc1ccc(N2CCN(CC)CC2)c(Cl)c1 returned WNV NS2B-NS3 inh -0.83, MT1-MMP reporter inactive and Hsc70 -4.0%.

These rows are one share of the data; rates above refer to the full screens.
